Rango-impB inh – inhibitors of Rango-importin beta complex formation; actives 0.031% (n = 340,000); AID 540263; Q14974; Potency, µM (top dose mostly 92.2 µM), for the others: top-dose inhibition of complex formation; Rango CFP/YFP FRET sensor + importin beta, 45 min; active = rising FRET ratio curve, often small or poorly fitted; inconclusive = mostly compound fluorescence or quenching in the first reads; inactive = flat curves in all reads;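 note: potency is the fitted concentration of half-maximal effect; 0% = DMSO wells and 100% = buffer wells lacking importin beta; nearly all actives have a fitted effect of over 15% in size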
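FRET biosensor Rango (snurportin 1 IBB between N-terminal EYFP and C-terminal Cerulean), 50 nM in PBS/1 mM DTT/0.02% Tween-20/0.1% BSA, preincubated 5 min RT with compound; 0.125 microM importin beta added, 45 min RT, CFP/YFP FRET ratio read.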
miR-21 reporter – miR-21 reporter, rising signal | Potency, µM (top dose mostly 38.3 µM), for inactives: at the top dose reporter change, positive = more light | HeLa miR-21 FLuc reporter, luciferase, 48 h | AID 2288 | 340,000 tested, under 10 active; active = well fitted rising curve with a large enough effect; inconclusive = small, poorly fitted or top-dose-only effect; inactive = no such curve, though single readings can be large or run the other way;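 note: % of control where 0% means no effect; miR-21 action dims this reporter so a rising signal means less miR-21 action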
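HeLa cells endogenously expressing miR-21, stably carrying CMV-driven firefly luciferase with a downstream miR-21 binding site, 2000 cells/well. Titrations up to approximately 40 uM, 48 hours; luciferase luminescence read.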
GLA inh pH 4.5 – inhibitors of human alpha-galactosidase A at pH 4.5; P06280; purified enzyme, 4-MU-alpha-Gal fluorescence, pH 4.5; activity change, negative = inhibition, % at 105 µM; 230,000 tested, under 10 active; AID 1467; inconclusive = small, poorly fitted or top-dose-only inhibition, or a rising curve; inactive = flat fitted curve, though single readings scatter; no compound was filed as active;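 note: 0% = full activity with enzyme and -100% = basal without enzyme; dose as in the result columns while the protocol names 77 µM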
Target sequence (P06280 whole entry, looked up): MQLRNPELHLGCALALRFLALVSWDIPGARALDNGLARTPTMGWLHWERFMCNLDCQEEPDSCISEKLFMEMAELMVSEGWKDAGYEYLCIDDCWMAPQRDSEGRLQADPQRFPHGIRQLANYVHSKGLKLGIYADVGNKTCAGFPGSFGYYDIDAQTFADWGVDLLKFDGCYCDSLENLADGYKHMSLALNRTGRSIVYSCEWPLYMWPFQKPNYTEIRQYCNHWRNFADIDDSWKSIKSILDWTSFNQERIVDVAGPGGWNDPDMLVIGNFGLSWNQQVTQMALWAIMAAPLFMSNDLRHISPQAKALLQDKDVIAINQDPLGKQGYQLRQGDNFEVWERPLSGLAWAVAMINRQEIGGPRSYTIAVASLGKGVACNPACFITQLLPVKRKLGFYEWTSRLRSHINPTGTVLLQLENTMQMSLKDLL
Rango release inh – inhibition of RanGTP-driven Rango-importin beta dissociation; O95149+P62826; Biochemical FRET Rango-importin beta, RanGTP-induced dissociation; Potency, µM (top dose mostly 46.1 µM), for inactives: top-dose activity change, negative = inhibition; actives 0.071% (n = 340,000); AID 540253; active means falling FRET ratio curve, often poorly fitted, with flat reads before Ran was added; inconclusive means other falling curves, or compound fluorescence or quenching; inactive means flat or rising ratio curve;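 note: potency is the fitted concentration of half-maximal effect; % of control where 0% means no effect; nearly all actives have a fitted effect of over 45% in size; -100% = wells without RanGTP and RCC1; the record marks most hits as doubtful in a second field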
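Compounds preincubate 5 min with complex of recombinant Rango and importin beta in PBS with 1 mM DTT. Ran (0.6 uM) loaded with 2 mM GTP plus 0.2 uM RCC1 starts dissociation; FRET is recorded 45 min later.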
* hit, by the source's call; ? = inconclusive; . = no result given. These rows are one share of the data; rates above refer to the full screens.

nr	Molecule	Rango-impB inh	miR-21 reporter	GLA inh pH 4.5	Rango release inh
1	CN(C)S(=O)(=O)c1cc(NC(=O)CN2CCN(c3ccccc3)CC2)ccc1Cl	3.9%	-1.2%	4.8	2.8%
2	Cc1ccc(C(=O)C(C)OC(=O)CN2C(=O)NC3(CCCC3)C2=O)cc1C (configuration not stated)	-4.2%	.	.	-0.4%
3	COc1ccc([C@@H]2[C@@H]3C(=O)N(C(C)(C)C)C(=O)[C@@H]3[C@]3(Cc4ccccc4)C(=O)N(c4cccc(Br)c4)C(=O)N23)cc1	-0.7%	.	.	26.5%
4	S=C(c1ccc2c(c1)OCO2)N1CCCC1	-0.6%	-10.7%	3.7	-12.6%
5	COc1ccc(C#Cc2c(-c3ccsc3)oc3ccc(-c4cc(OC)c(OC)c(OC)c4)cc23)cc1	-0.2%	.	.	17.0%
6	CN1CN(C)c2cccc3cccc1c23	3.2%	0.0%	-16.2	-0.8%
7	CCn1c(SCC(=O)Nc2ccc(Cl)cc2)nnc1C1CC1	0.1%	5.1%	-15.4	7.4%
8	N#CCCn1cc(/C=N/O)c(-c2ccc(-c3ccccc3)cc2)n1	-4.9%	15.1%	-6.4	-3.4%
9	O=C(NC(NC1CCS(=O)(=O)C1)C(=O)c1ccccc1)c1ccc(Cl)cc1 (configuration not stated)	2.3%	-6.6%	-10.3	9.1%
10	CN(C(=O)CN1C(=O)c2ccccc2S1(=O)=O)c1ccccc1C(=O)O	-1.6%	-3.1%	-1.4	-0.9%
11	Cn1c(N)c(C(=O)COC(=O)COc2ccc(Cl)cc2)c(=O)n(C)c1=O	-1.7%	.	.	-4.8%
12	O=C1C2C3C=CC(CO)(O3)C2C(=O)N1c1ccccc1-c1ccccc1 (configuration not stated)	2.1%	?	2.0	0.1%
13	C#CCOCCOCCOCCNc1nc(N2CCN(C(=O)[C@H](CCC(=O)O)n3cc(C(N)CC(C)C)nn3)CC2)nc(N2CCN(C(=O)[C@H](Cc3ccc(O)cc3)n3cc(C(N)[C@H](C)CC)nn3)CC2)n1 (some centres not stated)	.	2.0%	-4.0	.
14	O=C(CSc1nc(Nc2ccccc2)nc(N2CCOCC2)n1)Nc1ccc(Br)cc1F	4.2%	-0.1%	.	1.2%
15	CC(=O)C1=C(O)C(=O)N(c2ccc(Br)cn2)C1c1ccccc1[N+](=O)[O-] (configuration not stated)	0.3%	1.7%	.	-8.2%
16	COc1ccc(CC(=O)Nc2ccc(N3CCOCC3)cc2)cc1S(=O)(=O)N1CCOCC1	0.9%	1.0%	2.2	0.4%
17	CCSCc1nc(N)nc(NCCc2ccccc2)n1	0.8%	-30.0%	.	-13.6%
18	CC1CCC2(CC1)NC(=O)N(CC(=O)c1cn(CCC#N)c3ccccc13)C2=O (configuration not stated)	-1.0%	-3.9%	-5.8	12.3%
19	Cn1c(=O)c2c(SCC(=O)N3CCOCC3)nc(C3CC3)nc2n(C)c1=O	-2.2%	-1.3%	3.3	5.8%
20	CCn1cc(C(=O)Nc2ccccc2)c(=O)c2ccc(C)nc21	.	3.7%	-0.5	.
21	COc1ccc(C)cc1NC(=S)N1CCN(c2ccccn2)CC1	-1.5%	-21.5%	-8.0	16.3%
22	N#Cc1cc(-c2ccccc2)oc1NC(=O)c1ccccc1	?	-10.0%	6.7	-2.8%
23	C=CCOc1ccc(/C=C/C(=O)OCC(=O)NNC(=O)c2ccccc2F)cc1	-0.4%	.	.	1.2%
24	Cc1cc(C)c(C)c(S(=O)(=O)N2CCN(C)CC2)c1C	5.6%	-4.9%	1.9	-3.7%
25	COc1cccc(NC(=O)Cc2ccccc2)c1	0.1%	-24.1%	6.6	21.0%

Ordered by the number under Rango release inh (low to high): some entries from above
#	Compound	Rango-impB inh	miR-21 reporter	GLA inh pH 4.5	Rango release inh
24	Cc1cc(C)c(C)c(S(=O)(=O)N2CCN(C)CC2)c1C	5.6%	-4.9%	1.9	-3.7%
12	O=C1C2C3C=CC(CO)(O3)C2C(=O)N1c1ccccc1-c1ccccc1 (configuration not stated)	2.1%	?	2.0	0.1%
9	O=C(NC(NC1CCS(=O)(=O)C1)C(=O)c1ccccc1)c1ccc(Cl)cc1 (configuration not stated)	2.3%	-6.6%	-10.3	9.1%

Returning to the listing with the 2 entries that preceded the break.
nr	Molecule	Rango-impB inh	miR-21 reporter	GLA inh pH 4.5	Rango release inh
24	Cc1cc(C)c(C)c(S(=O)(=O)N2CCN(C)CC2)c1C	5.6%	-4.9%	1.9	-3.7%
25	COc1cccc(NC(=O)Cc2ccccc2)c1	0.1%	-24.1%	6.6	21.0%
26	CCCCOc1ccc(/C=C/C2=CC(C)(C)NC(=S)N2)cc1OCC	0.1%	2.2%	2.1	-13.8%
27	Nc1nc(N2CCN(c3ccccn3)CC2)nc2ccccc12	?	-66.5%	.	12.6%
28	CC(=O)Nc1ccc(S(=O)(=O)NCCC(=O)N2CCN(c3ccccc3Cl)CC2)cc1	1.9%	.	.	6.2%
29	Cc1c(NC(=O)c2cccs2)cccc1-c1nc2ccccc2s1	?	-8.8%	0.1	9.7%
30	Cn1ccnc1C(=O)c1ccc(S(=O)(=O)N2CCCC2)cc1	2.4%	-23.5%	6.1	-0.3%
31	CN1CCC(OC(=O)Cc2ccc(Cl)cc2)CC1	3.5%	-1.4%	-22.7	-5.4%
32	CCC(C)(C)c1nnc(NC(=O)C2CC(=O)N(CCc3ccc(F)cc3)C2)s1 (configuration not stated)	0.2%	-3.6%	.	1.7%
33	Cc1ccc(S(=O)(=O)N(CC(=O)N2CCc3ccccc3C2)c2cccc(Cl)c2)cc1	2.7%	5.7%	2.4	-4.7%
34	CC(=O)Nc1ccc(S(=O)(=O)N2CCC(c3nc4ccc(C)cc4[nH]3)CC2)cc1	1.4%	13.3%	-5.0	1.0%
35	COc1cccc(N2CCN(C(=S)Nc3cc(C)cc(C)c3)CC2)c1	-0.8%	1.4%	6.0	-3.1%
36	COc1ccc(OCCSc2ncc(CO)n2C)cc1	-0.1%	-35.6%	.	-5.0%
37	O=C(Nc1ccc(F)cc1)c1ccc2nc[nH]c2c1	1.8%	-45.1%	-3.3	-0.2%
38	CN1CCC(N(C)S(=O)(=O)c2ccc(NC(=O)c3ccc(S(=O)(=O)N(C)C)cc3)cc2)CC1	-1.6%	.	.	-8.8%
39	CCCn1c(=O)c2ccccc2n2c(SCc3cc(=O)oc4ccc5ccccc5c34)nnc12	-2.1%	-6.0%	-1.1	-10.8%
40	O=C(/C=C/Sc1ccccc1)c1ccc(Cl)cc1	-3.0%	10.7%	1.7	-0.2%
41	CSc1ccc(CN(C)C(=O)COc2ccc(C(=O)c3ccccc3)cc2)cc1	-0.4%	20.7%	.	-11.2%
42	Cc1[nH]c(=O)c(C(=O)c2cc(Cl)ccc2O)cc1C(=O)O	3.9%	3.0%	-0.9	?
43	O=C(c1ccco1)N1CCN(C2=NS(=O)(=O)c3ccccc32)CC1	-0.6%	-1.1%	3.8	7.8%
44	COc1cc(OC)cc(C(=O)N[C@H](C(=O)NC2CCCc3ccccc32)C(C)C)c1 (some centres not stated)	6.0%	.	.	34.0%
45	CSC1=C(C#N)C(c2ccc(C)s2)CC(=O)N1 (configuration not stated)	-5.4%	1.5%	0.4	-5.4%
46	CCc1nnc(NC(=O)c2ccc3ncsc3c2)s1	-0.2%	-29.9%	-4.5	17.5%
47	COc1ccc(-c2ccc(-c3nc4c(c(=O)[nH]c(=O)n4Cc4ccccc4)n3C)o2)c([N+](=O)[O-])c1	?	-26.7%	8.9	?
48	C#CCOC(=O)CCC(=O)Nc1cc(OC)nc(OC)n1	.	-2.3%	7.1	.
49	COc1ccc(-n2c(C)cc(/C=C3/SC(=S)N(C)C3=O)c2C)cc1	?	-8.0%	-19.2	?
50	CCOc1ccc(-n2c(SCC(=O)NC(C)CC)nc3n[nH]c(C)c3c2=N)cc1 (configuration not stated)	-4.1%	-22.9%	2.7	-2.9%
51	CC(=O)Nc1ccc2c(c1)C(=Nc1ccc(C)cc1)c1ccccc1-2	0.2%	.	.	22.6%

Already shown: 7 of the compounds above.
nr	Molecule	Rango-impB inh	miR-21 reporter	GLA inh pH 4.5	Rango release inh
45	CSC1=C(C#N)C(c2ccc(C)s2)CC(=O)N1 (configuration not stated)	-5.4%	1.5%	0.4	-5.4%
46	CCc1nnc(NC(=O)c2ccc3ncsc3c2)s1	-0.2%	-29.9%	-4.5	17.5%
47	COc1ccc(-c2ccc(-c3nc4c(c(=O)[nH]c(=O)n4Cc4ccccc4)n3C)o2)c([N+](=O)[O-])c1	?	-26.7%	8.9	?
48	C#CCOC(=O)CCC(=O)Nc1cc(OC)nc(OC)n1	.	-2.3%	7.1	.
49	COc1ccc(-n2c(C)cc(/C=C3/SC(=S)N(C)C3=O)c2C)cc1	?	-8.0%	-19.2	?
50	CCOc1ccc(-n2c(SCC(=O)NC(C)CC)nc3n[nH]c(C)c3c2=N)cc1 (configuration not stated)	-4.1%	-22.9%	2.7	-2.9%
51	CC(=O)Nc1ccc2c(c1)C(=Nc1ccc(C)cc1)c1ccccc1-2	0.2%	.	.	22.6%
